# KCNQ2 pot – potentiators of rat KCNQ2 potassium channel; B-score at 10 µM; AID 2239; CHO-K1 KCNQ2, FluxOR thallium flux fluorescence; stronger effect = higher value; O88943; 310,000 tested, 0.54% active;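 active means fluorescence ratio B-score at least 3 SD of library B-scores, with initial fluorescence B-score within 3 SD, cut at about 5.3 in these data; same plate scores as AID 2156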;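 further: B-score of peak minus minimum over baseline fluorescence ratio after K+ and Tl+ stimulus; positive B-score means potentiation of KCNQ2 with more thallium influx and brighter signal; only the inactives scoring about 0 or higher are listed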
# Target sequence (O88943 whole entry, looked up): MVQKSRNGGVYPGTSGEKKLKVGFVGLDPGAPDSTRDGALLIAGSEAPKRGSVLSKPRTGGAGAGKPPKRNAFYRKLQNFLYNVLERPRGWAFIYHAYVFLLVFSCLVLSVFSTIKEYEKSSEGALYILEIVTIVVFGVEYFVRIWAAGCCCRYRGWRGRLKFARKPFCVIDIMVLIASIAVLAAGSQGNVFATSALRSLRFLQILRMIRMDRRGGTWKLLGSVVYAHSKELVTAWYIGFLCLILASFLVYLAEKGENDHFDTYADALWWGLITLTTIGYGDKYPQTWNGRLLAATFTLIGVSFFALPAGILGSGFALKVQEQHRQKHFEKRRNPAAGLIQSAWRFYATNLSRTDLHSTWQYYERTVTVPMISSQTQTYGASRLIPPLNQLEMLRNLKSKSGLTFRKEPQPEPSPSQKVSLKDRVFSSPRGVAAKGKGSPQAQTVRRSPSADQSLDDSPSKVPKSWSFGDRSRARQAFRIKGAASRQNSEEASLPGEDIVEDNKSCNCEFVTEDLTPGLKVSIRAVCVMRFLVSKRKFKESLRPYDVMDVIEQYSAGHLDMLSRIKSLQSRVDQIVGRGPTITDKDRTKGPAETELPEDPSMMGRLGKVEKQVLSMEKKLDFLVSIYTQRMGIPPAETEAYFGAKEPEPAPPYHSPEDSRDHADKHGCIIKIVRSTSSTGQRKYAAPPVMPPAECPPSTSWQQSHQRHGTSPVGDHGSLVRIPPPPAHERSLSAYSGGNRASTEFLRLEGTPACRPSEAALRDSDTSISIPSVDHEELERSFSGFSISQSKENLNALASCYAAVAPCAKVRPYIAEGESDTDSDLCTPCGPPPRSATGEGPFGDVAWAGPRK
# KCNQ2 pot baseline – second read-out of KCNQ2 pot, no call of its own (marks repeat the call); B-score; compound at 10 µM; measured here: initial fluorescence intensity artifact check;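 brightness before thallium and not channel activity; 0 = typical well and far values either way flag optical interference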
# * marks the source's active call; other numbers are inactive results.
Structure	KCNQ2 pot	KCNQ2 pot baseline
NC(=O)c1ccc(C(F)(F)F)cn1	1.1	0.23
Oc1[nH]c2ccccc2c1C1=NCCCCC1	1.4	-0.22
Cc1ccc(/C=N/NC(=O)c2ccc3c(c2)OCCO3)s1	1.7	-1.2
CCCCCCC1C(C#N)=C(N)OC2=C1C(=O)CC(C)(C)C2 (centres undefined)	2.4	0.58
CC12CN3CCN(CC(C3)/C1=N\N=C1/C3CN4CCN(C3)CC1(C)C4)C2	0.45	-0.42
Cc1ccccc1Nc1nc(N)nc(COC(=O)CCS(=O)(=O)c2ccccc2)n1	1.7	-0.23
N#CNC(=Nc1cccc(F)c1)SCc1ccccc1F	0.01	0.28
O=C(NCc1ccco1)C1CCCN(S(=O)(=O)c2cnc[nH]2)C1 (centres undefined)	1.1	-0.89
CC(OC(=O)c1cccc(S(=O)(=O)N2CCCC2)c1)C(=O)NC1CCCCC1C (centres undefined)	0.98	-0.35
CCOc1ccc2sc(NS(=O)(=O)c3ccc(N)cc3)nc2c1	0.76	3.6
OCC[C@@H]1C[C@@H](O)[C@H](O)[C@@]2(CCCc3ccccc3O2)O1	0.83	-1.5
COc1ccc(CCNC(=O)c2ccc3c(=O)n(Cc4ccco4)c(=S)[nH]c3c2)cc1OC	0.62	1.1
O=C(Nc1ccccc1)c1cccc(-c2nnc(-c3ccccc3)o2)c1	0.16	-0.93
CN(C)S(=O)(=O)Nc1ccccc1F	0.36	0.84
CC(=O)c1ccc(OCC(=O)Nc2ccccc2N2CCCC2)cc1	1.4	-2.6
O=C(NC1CCSC1=O)c1cccc(Cl)c1 (centres undefined)	2.1	0.19
CC(C)(C)NC(=O)NC(=O)COC(=O)CNS(=O)(=O)c1ccc(Br)cc1Cl	0.04	1
CCn1nnnc1SCC(=O)c1cccc(OC)c1	2.1	-1.3
COc1ccc([N+](=O)[O-])cc1NCC(=O)c1ccc(C)cc1	1.5	0.54
O=C(CCSc1nnc2ccccn12)Nc1ccc(F)cc1	0.43	-0.22
Cc1cc(C(=O)COC(=O)c2ccc3c(c2)NC(=O)CS3)c(C)n1CCc1ccc(Cl)cc1	0.9	0.74
Cc1cc(CNC(=O)c2ccc3nc(Cc4ccccc4F)oc3c2)nn1C	0.07	1.2
COc1cc(/C=N/NC(=O)c2nc3ccccn3c2C)cc(OC)c1O	0.76	-0.3
COC(=O)c1ccc(COc2ccc(/C=N/O)cc2OC)o1	0.69	-0.51
Cn1c(=O)n(C)c2cc(CN3C(=O)OC(C)(C)C3(C)O)ccc21 (centres undefined)	0.08	-1.4
N#CCC(=O)Nc1cc(C(F)(F)F)ccc1N1CCOCC1	0.76	0.47
COCCN(C(=O)CSc1nc2ccc(Cl)cc2[nH]1)c1c(N)n(Cc2ccccc2)c(=O)[nH]c1=O	0.32	0.5
Cc1c(S(=O)(=O)N2CCN(c3ccccc3)CC2)c(=O)n(C)c(=O)n1C	0.78	2
N#Cc1c(C(F)(F)F)cc(-c2ccc(F)cc2)nc1SCC(=O)O	0.93	-1.9
CN(C)/C=C1/NC(=S)NC1=O	1.7	-0.33
CC1CCN(C(=O)c2ccc(-n3cnnn3)cc2)CC1	0.24	0.41
CC(C)(O)C#Cc1ccc(C(=O)N2CCC(C(N)=O)(N3CCCCC3)CC2)cc1	0.35	-0.05
COCCOC1CCN(C(=O)c2cc(COc3ccc(F)cc3F)on2)CC1	1.2	-0.48
Cc1ccc(C)c(-n2c(CNc3ccc(F)cc3)nnc2SCC(N)=O)c1	1.2	-1.6
COc1ccc(C(=O)NCC(c2ccco2)N2CCc3ccccc32)cc1 (centres undefined)	0.39	-1.9
CC(=O)c1ccc(NC(=O)C(C)N(C)CC(=O)Nc2ccc(N3CCOCC3)cc2)cc1 (centres undefined)	1.1	1
CC(C)(C)CNc1cc(N2CCOCC2)ccc1[N+](=O)[O-]	0.92	0.46
O=C1c2c(O)cc(O)cc2O[C@H](c2ccc(O)cc2)[C@H]1O	0.81	-2.8
O=C(Cn1nc(Cc2ccncc2)c2ccccc2c1=O)N1CCN(C(=O)c2ccco2)CC1	0.96	-1.2
CCCc1ccc(S(=O)(=O)Nc2ccc(C)c(NS(C)(=O)=O)c2)cc1	0.78	-1.9
CCc1cc2c(CN3CCN(Cc4ccccc4)CC3)cc(=O)oc2cc1O	0.07	-3.7
CC(C)CC(=O)Nc1cc(NC(=O)CC(C)C)cc(C(=O)NC(C)(C)C)c1	0.1	3.8
Cc1cc(SC(C)C(=O)Nc2c(C)n(C)n(-c3ccccc3)c2=O)nc2ccccc12 (centres undefined)	0.74	-0.02
C#CC1(NC(=O)N(C)C)CCCCC1	0.37	-0.02
CC(C)(C)c1ccc(-c2n[nH]c(=S)n2C2CCCC2)cc1	0.71	-0.86
Cc1ccc2c(c1)N(C(=O)CCC(=O)NCc1ccccn1)CC(C)O2 (centres undefined)	0.12	-0.43
CN(C(=O)c1ccccc1Cl)C1CCCCC1	0.85	1.9
Cn1c(NC(=O)c2ccccc2)c(-c2cccs2)c(=O)c2ccccc21	0.01	0.79

# Full records, quoted from the list. Order of values: KCNQ2 pot	KCNQ2 pot baseline
# `Cc1ccc2c(c1)N(C(=O)CCC(=O)NCc1ccccn1)CC(C)O2` (centres undefined) as listed: 0.12	-0.43
# `CC(C)(C)c1ccc(-c2n[nH]c(=S)n2C2CCCC2)cc1` as listed: 0.71	-0.86

# Remaining list, next part:
Structure	KCNQ2 pot	KCNQ2 pot baseline
Cc1ccc(OCCCCc2c(C)n[nH]c2C)cc1	2.3	-0.31
CCC(C)(C)n1nnnc1C(c1ccc(F)cc1)N1CCC(C(N)=O)CC1 (centres undefined)	2	-0.94
CC1(C)Cc2c(cnn2-c2cccc(F)c2)C(NC(=O)CSc2ccncc2)C1 (centres undefined)	0.13	0.88
CC1CN(C(=O)c2ccccc2)c2ccccc2NC1=O (centres undefined)	0.08	-0.35
Cc1cccc(NC2=C(Cl)C(=O)OC2NC(=O)c2ccccc2)c1 (centres undefined)	0.05	0.68
CSc1ccccc1NC(=O)CN1CC(C)OC(C)C1 (centres undefined)	0.38	-0.01
Cn1cnnc1Sc1cc(N2CCN(S(=O)(=O)c3ccc(Cl)c(Cl)c3)CC2)ccc1[N+](=O)[O-]	0.24	-0.68
CCOC(=O)c1cnc2[nH]c3ccccc3n2c1=O	1.5	-0.66
CCCCN1C(=O)Cc2c1nc(N)c1c(N)nc(N(CCC)CCC)c(C#N)c21	0.11	1.9
O=C(NCCCN1CCOCC1)C(C(=O)c1ccccc1)n1ccccc1=O (centres undefined)	0.06	0.33
CC(=O)Oc1ccc(N2C(=O)[C@@H]3[C@H](C2=O)[C@H]2c4ccccc4C=NN2[C@@H]3C(C)=O)cc1	0.28	0.53
C=CCn1c(O)c(N=NC(=O)CNC(=O)c2ccco2)c2ccccc21	1.3	-0.01
Cc1ccc(NC(=O)C(=O)NCc2ccc(/C=N/NC(=O)c3c(C)nc4cc(C)ccn34)o2)cc1	1.9	-1.4
Cc1ccc(CNC(=O)Nc2cccs2)cc1	1.6	-0.28
CSc1ccc(C2CC(=O)Nc3nc(SC)[nH]c(=O)c32)cc1 (centres undefined)	0.98	-0.01
O=C1CCN(Cc2nc(-c3ccc(Cl)cc3)no2)CCN1	1.7	0.38
CCCC(=O)N/C(N)=N/c1nc(C)c2ccccc2n1	1.6	0.22
COc1ccccc1NC1=C(Cl)C(=O)OC1OC(=O)c1ccco1 (centres undefined)	0.08	-2.1
CN(Cc1ccccc1)C(=O)CCCn1c(=O)c2cccn2c2cccnc21	1.6	0.73
COc1ccc(NC(=O)CSc2nnc(CC(=O)Nc3ccc(F)cc3)n2C)cc1	1.3	0.11
Cc1ccc(NC(=O)CSc2cccc[n+]2[O-])c([N+](=O)[O-])c1	3.1	0.7
O=C(NCCCN1CCOCC1)C1CC(=O)N(CCc2ccccc2)C1 (centres undefined)	0.59	0.29
COc1ccccc1N(CC(=O)NCCc1ccccc1)S(C)(=O)=O	0.69	0.02
CC(C)(C)n1nnnc1C(c1ccc(Cl)cc1)N1CCSCC1 (centres undefined)	1.3	2.2
COc1ccccc1N1C(=N)S/C(=C\c2ccc(-c3ccccc3C(=O)O)o2)C1=O	0.31	2
CCOC(=O)CSc1nc(-c2ccc(OC)cc2)ns1	0.87	-0.01
COCc1nnc(NC(=O)CCc2ccccc2)s1	0.51	-0.98
CC(C)(C)c1ccc(NC(=O)c2ccc(=O)[nH]n2)cc1	1.7	-0.18
O=c1cc(-c2ccccc2F)oc2ccccc12	0.53	-0.02
Cc1ccc(C)c(NC(=O)c2cc(=O)c3ccccc3o2)c1	1.3	0.1
Cc1[nH]n(-c2ccccc2)c(=O)c1N=Nc1cccc(C(=O)O)c1	2.4	-0.12
CCCCC(c1nnnn1CCOC)N1CCN(Cc2ccccc2)CC1 (centres undefined)	0.5	0.18
CCCCCn1c(SCC(=O)OC)nc2c1c(=O)[nH]c(=O)n2C	1.1	-0.74
Nc1cccc(NC(=O)CN2CCOCC2)c1	2.4	0.14
CCOC(=O)N1CCN(C(=O)CSc2ccc(-c3cccnc3)nn2)CC1	0.94	-0.97
COc1ccc(-c2oc3cccnc3c2/C=C/c2ccc(OC)c(OC)c2)cc1	1.3	-0.75
O=C(NCc1ccc(F)cc1)C1Cc2ccccc2CN1C(=O)c1ccco1 (centres undefined)	0.36	0.05
CC(=O)NCCc1nc2cc(NC(=O)c3ccccc3Cl)ccc2n1C	1.7	-0.24
COCCN(C(=S)Nc1ccc(C)cc1)C(C)c1cccnc1 (centres undefined)	1.7	0.09
Cc1ccc(C(=O)Nc2ccc3c(c2)OCO3)cc1	0.77	-0.92

# Compounds listed so far with two or more sulfur atoms (five):
Structure	KCNQ2 pot	KCNQ2 pot baseline
CCOc1ccc2sc(NS(=O)(=O)c3ccc(N)cc3)nc2c1	0.76	3.6
CCCc1ccc(S(=O)(=O)Nc2ccc(C)c(NS(C)(=O)=O)c2)cc1	0.78	-1.9
Cn1cnnc1Sc1cc(N2CCN(S(=O)(=O)c3ccc(Cl)c(Cl)c3)CC2)ccc1[N+](=O)[O-]	0.24	-0.68
CSc1ccc(C2CC(=O)Nc3nc(SC)[nH]c(=O)c32)cc1 (centres undefined)	0.98	-0.01
CCOC(=O)CSc1nc(-c2ccc(OC)cc2)ns1	0.87	-0.01

# New compounds follow:
Structure	KCNQ2 pot	KCNQ2 pot baseline
Cc1c(Br)c([N+](=O)[O-])nn1CC(=O)Nc1ccccn1	0.85	-0.12
CC(C)CCN1CCN(Cc2cccn2-c2nccs2)CC1CCO (centres undefined)	1.1	1.8
Cc1cccc(Sc2c([N+](=O)[O-])ncn2C)n1	0.07	0.02
O=C(CSc1ccsc1[N+](=O)[O-])NCCc1ccc(Cl)cc1	0.05	0.01
Cn1ccsc1=NC(=O)c1ccc([N+](=O)[O-])o1	0.81	0.01
Cc1ccc2[nH]c(=O)c(CN(CCCN3CCOCC3)C(=O)Nc3ccc(Cl)cc3)cc2c1	0.01	2.1
O=C(Nc1ccc2nn(-c3ccccc3)nc2c1)c1ccc(Br)o1	0.05	0.11
CCOC(=O)CNc1ccc(OC(F)(F)F)cc1	0.01	0
CC(C)CCNC(=O)CC1Nc2c3ccccc3nc(=S)n2C1=O (centres undefined)	0.14	0.29
Cc1cc(C)n(S(=O)(=O)c2ccccc2)n1	1.5	0.96
O=C(NC(=S)Nc1ccccc1F)c1ccc(Br)o1	16*	-0.1*
Cc1ccc(NC(=O)COC(=O)Cc2ccsc2)c(C)c1	0.06	1.1
Fc1ccc(NC(=S)N2CCCCC2)cc1	0.27	0.03
O=S1(=O)[C@H]2C[C@@H]3C=C[C@@]2(CN1Cc1ccc(Cl)cc1)O3	0.17	-1.7
CCCC(=O)N(c1ccc2oc(=O)sc2c1)S(=O)(=O)c1ccccc1	0.89	0.6
CCOc1ccc(NC(=O)CN(C)C(=O)c2ccc3nc(CC)c(CC)nc3c2)cc1OCC	0.55	-0.75
CCn1c(=N)n(CCO)c2ccccc21	0.26	1.2
Cn1c(N)c(C(=O)COC(=O)CSc2ccc3ccccc3c2)c(=O)n(C)c1=O	0.39	0.68
O=C(COc1ccccc1)NCC(=O)N/N=C/c1ccccc1	0.51	-0.16
CC(C)(Oc1ccc(Cl)cc1)C(=O)NCC(c1cccs1)N1CCOCC1 (centres undefined)	0.83	0.02
O=c1oc2ccccc2c(NCCO)c1[N+](=O)[O-]	0.05	-0.32
O=C(CCCNS(=O)(=O)c1cccc2nsnc12)NC1CCCCC1	0.02	0.51
O=C(Nc1cccc(O)c1)c1ccc([N+](=O)[O-])cc1Cl	0.54	0.38
COc1c(C(=O)N2CCCC2)ccc2ccccc12	0.08	-2

# Looked up above.
# Cc1c(Br)c([N+](=O)[O-])nn1CC(=O)Nc1ccccn1 – KCNQ2 pot baseline = -0.12
# O=C(NC1CCSC1=O)c1cccc(Cl)c1 (centres undefined) – KCNQ2 pot = 2.1

# New compounds follow.
Structure	KCNQ2 pot	KCNQ2 pot baseline
O=C(Nc1nnc(-c2ccccc2SCc2ccccc2F)s1)Nc1ccccc1F	0.78	-0.43
CC(C)[C@H](NC(=O)c1ccccc1)C(=O)N1CCc2ccccc21	0.64	-1.5
O=C(COC(=O)c1ccc(Cl)nc1)NNC(=O)c1ccc(Cl)cc1	0.56	0
O=C1c2cccc3cccc(c23)C(=O)N1CC1CCN(CC(O)COCc2ccc3c(c2)OCO3)CC1 (centres undefined)	1.7	-0.34
CCc1nc(SCC(=O)Nc2cccc3ccccc23)[nH]c(=O)c1C	0.3	0.6
CC(O)CN(Cc1ccc(Cl)cc1)CC(C)O (centres undefined)	0.03	1.6
O=C1N(Cc2ccc3c(c2)OCO3)c2ccccc2C1(O)c1c[nH]c2ccccc12 (centres undefined)	1.7	-0.08
Cc1cc(C)c(S(=O)(=O)c2ccccc2Cl)c(Cl)n1	0.61	0.67

# Screens: PubChem BioAssay, Johns Hopkins Ion Channel Center

# These rows are one share of the data; rates above refer to the full screens.
